Source: PubChem BioAssay
Tgondii IFNg = inhibitors of Toxoplasma gondii growth with IFN-gamma | actives 3.8% (n = 69,000) | activity change, negative = inhibition, %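 (about 20 µM by stock and volumes)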 | Toxoplasma gondii growth in IFN-gamma-treated host cells; stronger effect = lower value; reference of the scale not given here;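 active means below -70%; inconclusive means fit judged invalid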;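 further: host cells are HeLa cells infected with Toxoplasma gondii; parasite growth read as luciferase light; one replicate is shown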
An asterisk follows results filed as active; i = inactive; ? = inconclusive.

molecule	Tgondii IFNg
CO[C@H](CN(C)C(=O)C1CCOCC1)[C@@H](C)CN(C(=O)Nc1ccc(C(F)(F)F)cc1)[C@@H](C)CO	-43
Fc1cccc(-c2nccn2CCCc2ccncc2)c1F	-5
CCOc1cccc(C2c3[nH]c4ccccc4c3CCN2C(=O)c2cc3ccccc3[nH]2)c1 (stereo not drawn)	i
C=C(C)c1nc2cc(OC)c(OC)cc2c(=O)o1	2
O=C(Nc1cccc(Br)c1)N1CCC2(CC1)Nc1cc(F)ccc1-n1cccc12	-5
O=C(Cc1ccccn1)N[C@@H]1CC[C@@H](CCNS(=O)(=O)c2cccc(F)c2)O[C@H]1CO	1
Cc1nc(-c2cc(C(=O)NCCN(C)C)c3ccccn23)cn1-c1nccs1	21
Cc1nn(CC(=O)N2CCCC(c3ccn[nH]3)C2)c(=O)c2ccccc12 (stereo not drawn)	2
C=C(C)COc1ccccc1C(=O)N(C)CC(C)N1CCOCC1 (stereo not drawn)	15
COc1cccc(C#Cc2ccc3c(c2)[C@H]2[C@H](CCN2C(=O)Cc2ccccc2)[C@@H](CO)N3C)c1	-20
CCOc1ccc(-c2nc(CN(c3ccc(OC)cc3)S(=O)(=O)c3cccs3)c(C)o2)cc1	14
CCC(=O)N1CCC2(CC1)C(=O)Nc1ccc(C(=O)NC3CC3)cc12	3
Cc1cc(C(C)Nc2ccccc2)c2nc(N3CCOCC3)cc(=O)n2c1 (stereo not drawn)	50
CN(C)S(=O)(=O)N1CCC(Oc2ccc(C(=O)NCc3cccs3)cc2)CC1	-52
O=C(NCCS(=O)(=O)c1ccc(F)cc1)c1cc(-n2cccn2)ccc1Cl	13
Clc1cc2c(cc1CN1CCCC1c1ccccn1)OCO2 (stereo not drawn)	2
CCN(CC)c1ncnc2c1cnn2CC(=O)NCc1ccc(OC)cc1	-99*
O=C(CN1C(=O)CCc2cc(Br)ccc21)N1CCN(c2cccc(C(F)(F)F)c2)CC1	-53
O=C(Nc1cc(F)ccc1F)N1CCC2(CC1)Nc1ccccc1-n1cccc12	316
COc1ccc(NC(=O)c2ccc(S(=O)(=O)N3CCOCC3)cc2)c(OC)c1	5
CC(C)N1CCCn2c(nc(CNC(=O)c3cccn3C)cc2=O)C1	0
C[C@@H]1CN([C@H](C)CO)C(=O)c2cccc(NS(C)(=O)=O)c2O[C@@H]1CN(C)Cc1ccc(-c2ccccc2)cc1	-55
O=C(O)CC/C=C\CC[C@@H]1[C@@H](N2CCCCC2)[C@@H](O)C[C@@H]1OCc1ccc(-c2ccccc2)cc1	9
CC(=O)NCCC1CN(Cc2c(Cl)nc3sccn23)CCO1 (stereo not drawn)	8
O=C(NCCCc1ccccc1)C1(c2ccccc2)CCCC1	24
CSCc1ccc(C(=O)N2CCCC3(CC2)CNC(=O)O3)o1 (stereo not drawn)	-7
Cc1nc2ccc(NC(=O)NC(=O)c3ccccc3Cl)cc2o1	-20
COc1ccc(NC(=O)Cn2c(=O)cc(C(=O)N3CCc4ccccc4C3)c3ccccc32)c(OC)c1	-17
Cc1ccc(S(=O)(=O)NC(=O)NCC2CCN(C(=O)OC(C)(C)C)CC2)cc1	63
COc1ccc(CN(CCC(c2ccc(F)cc2)C2CCOC(C)(C)C2)C(=O)c2ccco2)cc1 (stereo not drawn)	8
COc1ncccc1CN1Cc2nnn(C)c2C(COCC2CC2)C1 (stereo not drawn)	-8
CCc1cccc(NC(=O)CN2C(=O)CCc3cc(S(=O)(=O)N4CCC(C)CC4)ccc32)c1	-127*
CN(Cc1ncc[nH]1)C(=O)c1nc2ccccc2s1	-10
C=CCOCC1CN(C(=O)Cc2ccsc2)Cc2nccn2C1 (stereo not drawn)	0
Oc1cc(CCC2CCCCN2)cc(-c2ccncc2)c1 (stereo not drawn)	3
COc1ccc(C(=O)N2C[C@H]3CC=CC[C@H]3C2)cc1N1CCOCC1	-9
CCn1nc(C)c(C(C)NS(=O)(=O)c2ccc(OC)c(C)c2)c1C (stereo not drawn)	14
Cc1n[nH]c(C)c1S(=O)(=O)NCc1ccc(S(=O)(=O)N2CCCC2)cc1	9
Cc1cc(C)n2nc(C(=O)Nc3ccc(Cl)cc3)cc2n1	i
O=C(c1cn(-c2ccccc2)nn1)N1CCN(C(=O)c2cccs2)CC1	-27

3 compounds already listed, arranged by SMILES length, smallest number first.
molecule	Tgondii IFNg
C=CCOCC1CN(C(=O)Cc2ccsc2)Cc2nccn2C1 (stereo not drawn)	0
Cc1cc(C)n2nc(C(=O)Nc3ccc(Cl)cc3)cc2n1	i
CCn1nc(C)c(C(C)NS(=O)(=O)c2ccc(OC)c(C)c2)c1C (stereo not drawn)	14

Continued.
molecule	Tgondii IFNg
CCOC(=O)c1ccc(N2CCN(C3CCOCC3)CC2)nc1	8
Cc1nonc1C1CCCN1S(=O)(=O)NCc1ccccc1 (stereo not drawn)	2
O=C(Nc1ccccc1)N1CCN(c2nc(-c3ccccc3)ns2)CC1	-6
O=C1c2ccccc2-c2ccc(N3CCCCC3)c3cccc1c23	28
Cc1nnsc1CNC(=O)CC1CCc2ccccc21 (stereo not drawn)	-7
O=C(Cn1ncc2c(N3CCN(c4ccccn4)CC3)ncnc21)Nc1ccccc1Cl	97
COc1ccc(OC)c(NC(=O)CC(=O)N2CCCCCC2)c1	1
CC(C)=CC/C=C1\CCC(C(=O)O)C(C(=O)O)C1 (stereo not drawn)	-4
C[C@@H]1CN([C@@H](C)CO)C(=O)Cc2cc(NC(=O)CCN3CCOCC3)ccc2O[C@@H]1CN(C)Cc1ccc(C(=O)O)cc1	3
CCC(=O)n1nc(-c2ccc(C)cc2)nc1N	3
Cc1cnc(N2CCc3onc(C(=O)NC(C)C)c3C2)nc1	-3
COc1ccc(C)cc1NC(=O)Cn1c(=O)cc(C(=O)N2CCCCC2)c2ccccc21	-1
CC(C)c1noc(-c2ccc(N(C)CC(O)c3ccccc3)nc2)n1 (stereo not drawn)	48
Cc1nn(C)c(C)c1CCC(=O)N[C@H]1CCC(=O)NC1c1cccnc1 (stereo partly drawn)	85
COC(=O)c1cc2n(n1)CCN(C(=O)c1cnc(CN3CCCC3)s1)C2	-7
CC(C)(C)C1CCc2nc(-c3cccnc3)nc(Nc3cccc(C(F)(F)F)c3)c2C1 (stereo not drawn)	-73*
O=C(NCc1cccc(Br)c1)c1nc(Nc2ccc(F)cc2)c2ccccc2n1	-66
Cc1nc(Cn2c3c(ccc2=O)CC(N)CC3)cs1 (stereo not drawn)	48
CCOC(=O)c1c(C)[nH]c(C(=O)N2CCNC(CC)C2)c1C (stereo not drawn)	3
CCn1nc(C)cc1C(=O)N1CC[C@@H](OC)[C@@H]2CN(CC3CC3)C[C@@H]21	-4
COC(=O)c1ccccc1NC(=O)c1ccccc1Cl	71
CCc1ccc(NC(=O)Cn2c(=O)cc(-c3nc(C4CC4)no3)c3ccccc32)cc1	-20
O=C(CN1C(=O)CCc2cc(Br)ccc21)N1CCN(c2ccccn2)CC1	15
CN(C)CC(=O)N1CCC2(CC1)COC(COc1ccccn1)C2 (stereo not drawn)	-42
Cc1cccc(S(=O)(=O)N2CC[C@H]3[C@@H](CO)N(C)c4ccc(Br)cc4[C@H]32)c1	-1
O=C(N[C@@H]1CCO[C@]2(CCN(Cc3ccc(F)cc3)C2)C1)c1ccco1	-24
CC(=O)N1[C@H](CO)[C@@H](c2ccccc2)[C@H]1CN(CC(C)C)C(=O)c1ccccn1	-10
CCOC(=O)c1cnc(N2CCN(C(=O)OCC)CC2)[nH]c1=O	8
CC(=O)NCc1csc(C2CCCN(S(=O)(=O)c3ccc(C)c(C)c3)C2)n1 (stereo not drawn)	-20
c1ccc(-c2nc3c(c(NC[C@@H]4CCCO4)n2)CCNC3)nc1	0
O=C(c1cccc(F)c1)N1CC2(C1)[C@@H](c1ccccc1)[C@H](CO)N2Cc1ccccn1	51
CCOC(=O)c1nc(N2CCN(c3ccccc3OC)CC2)c2ccccc2n1	39
O=c1c2ccccc2nc2n1CCCN2	16
CNC(=O)CN1CCOCC2(C1)CN(C(=O)c1ccn[nH]1)CCO2 (stereo not drawn)	-8
CCn1ccc(NC(=O)CC2CCN(CCc3ccccc3)CC2)n1	-34
Cc1nc2ccc(S(=O)(=O)N3CCN4CCNC(=O)C4C3)cc2s1 (stereo not drawn)	11
COC(=O)c1ccc2c(c1)N(Cc1nc(-c3ccc(Cl)cc3)oc1C)C(=O)c1ccccc1S2	-5
Nc1ccc(-c2ccc3ncc4ccc(=O)n(-c5cccc(C(F)(F)F)c5)c4c3c2)cn1	-76*
CC(C)CC(=O)Nc1ccc(S(=O)(=O)N2CCC3(CC2)Nc2ccccc2-n2cccc23)cc1	1
O=C(COc1ccccc1)N1CCCC2(C1)Nc1cccnc1NC2=NCc1ccccc1 (stereo not drawn)	92

Following part.
SMILES | Tgondii IFNg
Clc1ccc(-c2nc(NC3CCCCCC3)c3ccccc3n2)cc1 | -63
Cc1ccc(NC(=O)CN2CCC3(CC2)N=C(c2ccc(Cl)cc2)C(=O)N3)cc1C | 57
COc1ccc(-c2ccccc2C(N)=O)c(OC)c1OC | -5
CCC(c1cccnc1)N(C)Cc1c(CO)cnc(C)c1O (stereo not drawn) | -2
COc1ccc(Oc2cccc(Oc3ccc(OC)cc3)c2C#N)cc1 | -2
CCS(=O)(=O)c1ccc(O)c(NC(=O)Nc2ccccc2OC)c1 | 11
CCOC(=O)c1cnc2cc(C(F)(F)F)ccc2c1NCC(C)O (stereo not drawn) | ?
Cc1nc(-c2cccc(F)c2)sc1CCNS(=O)(=O)c1cccc(F)c1 | 26
CC(C)NC(=O)[C@@]12COC[C@@H]1CN(Cc1cnn(C)c1)C2 | 0
O=C1CSc2ccccc2N1Cc1n[nH]c(=S)n1Cc1ccccc1 | -40
COc1ccccc1-n1c(SCc2ccncc2)nc2cccnc21 | 8
Cc1ccc(C2CC(=O)C3C(=Nc4ccccc4NC3c3cccnc3)C2)cc1 (stereo not drawn) | 185
O=C(CSc1nc2ccccc2n1Cc1ccccc1)Nc1ccccn1 | -6
CCc1ccccc1NC(=O)c1nnn(Cc2nc(-c3cccc(OC)c3OC)oc2C)c1C | -84*
O=C(CN1CC[n+]2c(-c3cccs3)csc21)c1ccc(Br)cc1 | 33
c1nc2n(n1)C1(CCCCC1)C1=C(CCCC1)N2 | -14
COCC(=O)N1CC2(C1)CN(S(C)(=O)=O)[C@H](CO)c1c2c2ccc(OC)cc2n1C | 7
C[C@@H]1CN(C(=O)Nc2ccccc2)CC[C@@]12CCC(C(=O)NCC1CC1)O2 (stereo partly drawn) | 0
COc1ccc2c(c1OC)C(=O)O[C@@H]2C1c2c(cc3c(c2OC)OCO3)CCN1C (stereo partly drawn) | 18
CCOC(=O)CSC1=Nc2ccccc2C2=NC(CC(=O)NCc3ccccc3)C(=O)N12 (stereo not drawn) | 6
Cc1ncsc1C(=O)N1CCCC1c1cccc(-n2ccnc2C(C)C)n1 (stereo not drawn) | -13
Cc1nc(C(=O)N2CCCC3(CCN(C)C3=O)CC2)cs1 (stereo not drawn) | -12
CN(Cc1ccc2ccccc2n1)C(=O)c1ccc(-c2cccc3c2OCC3)nc1 | -7
CNC(=O)c1cc(OC)ccc1Br | -34
CNC(=O)[C@@H]1CC2CN(C(=O)c3ccc4c(c3)OCO4)CC2N1C (stereo partly drawn) | 0
C[C@@H]1CCCCO[C@H](CN(C)Cc2ccncc2)[C@@H](C)CN([C@H](C)CO)C(=O)c2cc(NC(=O)Cc3ccccc3)ccc2O1 | 405
C=CCOc1ccc(C(=O)CC)cc1OC | -9
Nc1cc2cc(F)ccc2nc1C1CCN(C(=O)c2cscn2)CC1 | 105
Cc1cccc(S(=O)(=O)N2C[C@@H]3[C@H](c4ccccc42)[C@H](CO)N3C(=O)c2ccccc2)c1 | 2
COC(=O)c1c(NCc2cc(F)cc(F)c2)c2cccc(Cl)c2[nH]c1=O | -98*
Cc1ccc(C)c(-c2coc(-c3ccc(NC(=O)NCc4ccccc4)cc3)n2)c1 | -39
CN(C)c1ncc2c(n1)[C@H]1CN(C(=O)c3ccccc3)C[C@@H]1S(=O)(=O)C2 | 1
COCCN1CCc2cc(C(=O)NC(C)C)c(N(C)C)nc2CC1 | -1
O=C(NCCc1csc(-c2ccc(F)cc2)n1)c1cccc(Br)c1 | -87*
Cc1oc(C2CCN(C(=O)Nc3ccc4c(c3)CCC4)CC2)nc1C(=O)N1CCOCC1 | 10
CC(=O)c1cc(C(=O)Nc2cnn(Cc3ccc(F)cc3)c2)cs1 | -57
COc1cc(OC)c(NC(=O)c2nc(Nc3ccccc3)c3ccccc3n2)cc1Cl | 361
Cc1ccccc1NC(=O)NCCc1c[nH]c2ccccc12 | 18
O=C1c2ccccc2-c2nc3ccccc3n21 | 116
Cc1ncc(C(=O)N2CCCC(CCc3ccc(F)cc3)C2)s1 (stereo not drawn) | -14
COc1ccc(S(=O)(=O)N2C[C@H](O)COC[C@H]3O[C@@H](CC(=O)N[C@H]4CCN(Cc5ccccc5)C4)CC[C@@H]32)cc1 | -34

Structural class: the entries above with a Cl atom (12)
SMILES | Tgondii IFNg
O=C(NCCS(=O)(=O)c1ccc(F)cc1)c1cc(-n2cccn2)ccc1Cl | 13
Clc1cc2c(cc1CN1CCCC1c1ccccn1)OCO2 (stereo not drawn) | 2
CC(=O)NCCC1CN(Cc2c(Cl)nc3sccn23)CCO1 (stereo not drawn) | 8
Cc1nc2ccc(NC(=O)NC(=O)c3ccccc3Cl)cc2o1 | -20
Cc1cc(C)n2nc(C(=O)Nc3ccc(Cl)cc3)cc2n1 | i
O=C(Cn1ncc2c(N3CCN(c4ccccn4)CC3)ncnc21)Nc1ccccc1Cl | 97
COC(=O)c1ccccc1NC(=O)c1ccccc1Cl | 71
COC(=O)c1ccc2c(c1)N(Cc1nc(-c3ccc(Cl)cc3)oc1C)C(=O)c1ccccc1S2 | -5
Clc1ccc(-c2nc(NC3CCCCCC3)c3ccccc3n2)cc1 | -63
Cc1ccc(NC(=O)CN2CCC3(CC2)N=C(c2ccc(Cl)cc2)C(=O)N3)cc1C | 57
COC(=O)c1c(NCc2cc(F)cc(F)c2)c2cccc(Cl)c2[nH]c1=O | -98*
COc1cc(OC)c(NC(=O)c2nc(Nc3ccccc3)c3ccccc3n2)cc1Cl | 361

A portion of the library; count on the stated rates, not on these rows.
